# VDR inhibitor: Inhibitors of the vitamin D receptor (VDR): qHTS | Vitamin D3 receptor (Homo sapiens), P11473 | VDR-SRC2-3 peptide fluorescence polarization, 2 h | Potency, µM, inactives show max response, negative = inhibition, hits mostly inhibitors | 400,000 compounds, 0.93% hits | AID 504847, 2011; active = well fitted inhibition curve with a large enough effect; inconclusive = small, poorly fitted or top-dose-only effect, or another doubt; inactive = no such curve, though single readings can be large or run the other way; also: series mostly up to about 120 µM
# Target sequence (P11473 whole entry, looked up): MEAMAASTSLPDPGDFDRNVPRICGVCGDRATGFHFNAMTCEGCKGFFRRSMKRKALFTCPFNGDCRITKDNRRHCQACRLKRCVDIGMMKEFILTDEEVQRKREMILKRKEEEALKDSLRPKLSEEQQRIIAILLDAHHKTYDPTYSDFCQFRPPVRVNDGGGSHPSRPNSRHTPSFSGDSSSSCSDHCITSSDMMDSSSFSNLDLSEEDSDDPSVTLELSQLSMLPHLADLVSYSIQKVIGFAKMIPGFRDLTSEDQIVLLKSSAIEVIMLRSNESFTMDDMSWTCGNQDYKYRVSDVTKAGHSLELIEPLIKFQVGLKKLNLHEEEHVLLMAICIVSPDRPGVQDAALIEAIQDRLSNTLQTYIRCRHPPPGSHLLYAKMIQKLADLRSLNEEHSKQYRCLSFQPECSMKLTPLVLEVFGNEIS
#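 VDR–SRC2-3 interaction, FP format. Cmpds 23 nl via pintool, brief spin, 2 h ambient incubation.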
# Active calls of the source: *; u = inconclusive; & = joins results of further samples; [ ] = another dose, or the depositor's remark. % is scaled to controls: 0 for no effect and ±100 for the full control effect; potency is read from the fitted curve at half-maximal effect.
VDR inhibitor,SMILES
-4.6%,Cc1cccc(N2CCN(C(=O)c3ccc(NC(=O)CC4SC(N5CCCC5)=NC4=O)cc3)CC2)c1C (stereo not given)
-0.3%,COc1ccccc1CNc1ncnc2ccc(-c3cccnc3)cc12
-11.0%,O=[N+]([O-])c1cccc(CSC2=NCCN2S(=O)(=O)c2ccccc2)c1
7.1%,CCN(CC)c1ccc(CNCCCSc2nnnn2C)cc1
2.4%,O=C(CCC(=O)Nc1ccccc1Cl)NNC(=O)COc1ccc([N+](=O)[O-])cc1
-17.4%,COC(=O)c1ccc(C(=O)OC)c(NC(=O)CN2CCC(C)CC2)c1
7.3%,O=c1[nH]c2ccccc2n1CCC1CCCCC1
6.7%,COc1cc(OC)c(NC(=O)c2sc3nc4n(c(=O)c3c2C)CCCC4)cc1Cl
5.8%,O=C(O)/C=C/C(=O)N(Cc1ccccc1)Cc1ccco1
17.6%,O=C1NC2(CCCCCC2)C(=O)N1Cc1ccc(F)cc1Cl
3.8%,Cc1ccc(C(=O)NCC(=O)OCC(=O)c2ccc3c(c2)NC(=O)CO3)cc1
10.3%,COc1ccc(-n2nnc3c(=O)n(Cc4cc(C)ccc4C)cnc32)cc1
-11.5%,CCCCCC1C(=O)CCC1CC(=O)O (stereo not given)
20.2%,CCN(CC)C(=O)c1sc(NC(=O)Cc2cccs2)c(C#N)c1C
-7.9%,COC(=O)C(Cc1ccc(O)cc1)NC(=O)c1ccc2c(c1)OCCO2 (stereo not given)
-3.9%,CSc1ccc(/C=N/NC(=O)COc2ccc(Br)cc2Cl)cc1
0.0%,CCN(CC)C(=O)Cn1cc(S(=O)(=O)CC(=O)Nc2ccc(F)cc2)c2ccccc21
15.4%,Cc1ccccc1CN1C(=O)c2ccccc2S1(=O)=O
-13.9%,CC1CCCCN1C(=O)C1CCCN(S(=O)(=O)c2cccc3nsnc23)C1 (stereo not given)
-5.7%,CC(C)N(Cc1ccccc1)C(=O)COC(=O)C1CCN(S(=O)(=O)c2ccc3c(c2)OCCO3)CC1
12.9%,CC(NC1CCCCC1)C(=O)NN=C(c1ccccc1)c1ccccc1 (stereo not given)
8.3%&1.7%,C=CCOC(=O)C1=C(C)NC(SC)=C(C#N)C1c1ccc(OCC)cc1 (stereo not given)
5.5%,Cc1ccc(NS(=O)(=O)c2cccs2)c(C)c1
1.0%,CSc1nc2nccc(-c3ccc(Oc4ccccc4)cc3)n2n1
-13.1%,CC1(C)Cc2c(sc3nnn(CC(=O)Nc4ccccc4)c(=O)c23)CO1
2.4%,Cc1cc2nc(SCC(=O)N(C)C)c3c(c2cc1C)CCCC3
4.6%,COc1cc(OC)c2cc(C(=O)N/N=C/c3ccccc3O)[nH]c2c1
-23.7%,O=[N+]([O-])c1cccc(/C=N/n2c(COc3ccccc3)n[nH]c2=S)c1
10.4%,FC(F)(F)c1cc(-c2cccs2)nc(-n2cc(Br)cn2)n1
7.9%,N#CC1(NC(=O)CSc2nnc(C3CC3)n2C2CC2)CCCCC1
-4.1%,CCOc1ccc(NC(=O)CN(C)C(=O)Cc2sc(C)nc2-c2ccc(F)cc2)cc1OCC
-8.1%,Fc1ccc(-c2csc(Nc3ccccn3)n2)c(F)c1
30.6%[activator],CCC(=O)Nc1ccc2c(c1)ncn2-c1ccccc1C
3.4%,C=CCn1c(SCC(=O)N(CC)C2CCS(=O)(=O)C2)nc2ccccc2c1=O (stereo not given)
12.8%,O=C(NCCc1nc2ccccc2[nH]1)/C(=C/c1ccc2c(c1)OCO2)NC(=O)c1ccc(Cl)cc1Cl
22.5%,Cc1c(C(=O)N(C)C)c2cc(Cl)ccc2n1O
3.8%,COc1ccc2[nH]c(=O)c(CN(CCCN3CCOCC3)C(=O)NCc3ccccc3)cc2c1
18.9%,COc1cc(Cl)c(C)cc1NC(=O)COC(=O)CCc1nc2ccccc2c(=O)[nH]1
6.1%,Cc1sc2nc(-c3cccs3)oc(=O)c2c1C
-15.2%,CN(Cc1ccccc1)C(=O)c1ccc2c(c1)OCO2
1.6%,COc1cc(/C=N/Nc2nc3ccccc3[nH]2)cc(OC)c1O
-8.1%,CC(=O)c1cccc(N(CC(=O)N2CCCCC2)S(C)(=O)=O)c1
-3.0%,COc1cc(CCC(=O)N2CCN(c3ccccc3Cl)CC2)cc(OC)c1OC
0.0%,CC(Sc1nc(N2CCOCC2)c2c(c1C#N)CC(C)(C)OC2)C(=O)Nc1ccccc1 (stereo not given)
-2.1%,C=CCN(C(=O)CNC(=O)c1ccco1)C(C(=O)NC1CCCCC1)c1cccnc1 (stereo not given)
7.2%,O=C(O)c1cc(S(=O)(=O)N2CCCCC2)ccc1Cl
0.8%,CCOC(=O)c1sc2ccccc2c1S(=O)(=O)NCc1ccc(F)cc1
7.3%,O=C(CSc1nccn1C1CCCC1)Nc1ccccc1
-19.6%,COc1ccc(Cl)cc1-c1csc(N)n1
-4.9%,COc1cccc(OC)c1C(=O)NCC12CC3CC(C1)CC(CNC(=O)c1c(OC)cccc1OC)(C3)C2
-14.4%,CC1=NN(C(=O)c2c(Br)cnn2C)C(O)(C(F)(F)F)C1 (stereo not given)
4.8%,CSC1=N/C(=C\c2cccc(Cl)c2)C(=O)N1N(C)C
-10.7%,O=C(O)CCC(NC(=O)c1ccc(Cl)cc1)C(=O)O (stereo not given)
-14.5%,CN(C)S(=O)(=O)c1ccc(C(=O)NNC(=O)c2ccccc2-n2cccc2)cc1
8.1%,Cc1cc(NC(=O)N2CCC(CN3CCOCC3)CC2)ccc1Br
-2.4%,CCOc1ccccc1CN1CCN(C2CCOCC2)CC1CCO (stereo not given)

# Other structures.
VDR inhibitor,SMILES
2.0%,CSc1ncc(Cl)c(C(=O)NCc2cccnc2)n1
1.7%,CCOc1ccc(NC(=O)Nc2nnc(CC(=O)NCc3ccccc3)s2)cc1
-5.0%,Cc1c(NS(=O)(=O)c2cc(C(=O)Nc3ccc(F)cc3Cl)ccc2Cl)c(=O)n(-c2ccccc2)n1C
-12.9%,Cc1nc(SCC(=O)Nc2cc(S(=O)(=O)N3CCOCC3)ccc2Cl)nc(C)c1C
u,O=C(O)CN1C(=O)/C(=C\c2ccccc2OCc2ccc(Cl)cc2Cl)SC1=S
-4.6%,O=C(CSc1ccccn1)Nc1nc2ccc(Br)cc2s1
-6.3%,CC1CC1C(=O)N(C)CC(=O)Nc1ccc(Cl)c(C(F)(F)F)c1 (stereo not given)
13.9%,Cc1ccc(OCC(=O)Nc2nnc(S(=O)(=O)N3CCCCC3)s2)cc1
12.1%,Cn1nccc1C(=O)OCC(=O)Nc1ccccc1Cl
12.2%,CC(C)Sc1ncc(Cl)c(C(=O)Nc2ccc(S(=O)(=O)N3CCCCC3C)cc2)n1 (stereo not given)
0.5%,CC(=O)NC(C)c1cc(Cl)c2ccccc2c1O (stereo not given)
-12.1%,Fc1ccc(-c2cc(C(F)(F)F)nc(NCc3ccccc3)n2)cc1
-9.6%,COc1cccc(NC(=O)c2ccc(NC(=O)C3CC(=O)OC34CCCCC4)cc2)c1 (stereo not given)
-14.5%,Cc1ccc(NC(=O)CCSc2nnc(C)o2)cc1
-2.5%,O=C(NC1CCCC1)C1CCCN(S(=O)(=O)c2cnc[nH]2)C1 (stereo not given)
8.1%,CSc1ncccc1C(=O)OCC(=O)c1ccc[nH]1

# 7 entries out of the list above, ordered by their value in VDR inhibitor, descending:
VDR inhibitor,SMILES
12.2%,CC(C)Sc1ncc(Cl)c(C(=O)Nc2ccc(S(=O)(=O)N3CCCCC3C)cc2)n1 (stereo not given)
12.1%,Cn1nccc1C(=O)OCC(=O)Nc1ccccc1Cl
8.1%,CSc1ncccc1C(=O)OCC(=O)c1ccc[nH]1
0.5%,CC(=O)NC(C)c1cc(Cl)c2ccccc2c1O (stereo not given)
-2.5%,O=C(NC1CCCC1)C1CCCN(S(=O)(=O)c2cnc[nH]2)C1 (stereo not given)
-12.1%,Fc1ccc(-c2cc(C(F)(F)F)nc(NCc3ccccc3)n2)cc1
-14.5%,Cc1ccc(NC(=O)CCSc2nnc(C)o2)cc1

# Next part
VDR inhibitor,SMILES
-20.5%,CCc1ccc(C(=O)NNC(=O)CCC2CCCCC2)cc1
-14.2%,O=C(CNCc1cccnc1)Nc1cc(C(F)(F)F)ccc1N1CCOCC1
-9.8%,Cc1ccc2cccc(NS(=O)(=O)c3ccccc3)c2n1
8.2%,Cc1ccc(Cn2c(C)c(CNCCCc3ccccc3)c(C(=O)O)c2C)cc1
20.2%,CN(C)CC(O)CN1C(=O)N(CN2C(=O)N(CC(O)CN(C)C)C(=O)C2(C)C)C(C)(C)C1=O (stereo not given)
-5.0%,COc1cc(SC)ccc1C(=O)OCC(=O)NC1CCCC1
-1.8%,CCNc1ncc2nc(C)c(=O)n(CCOC)c2n1
-6.9%,COc1ccc(CNC(=O)Nc2cccc3ccccc23)cc1
3.2%,COc1ccc(-c2nn(-c3ccccc3)cc2/C=C/C(=O)N(C)CC(=O)Nc2cccc(F)c2)cc1OC
-8.0%,COc1ccc(NC(=O)CN2CCN(CC(=O)Nc3ccccc3OC)CC2)c(OC)c1
-2.9%,O=C(Cc1noc2ccccc12)Nc1ccc2ccccc2c1
-9.0%,CCOc1ccc(CN(C)CC(=O)Nc2ccc([N+](=O)[O-])cc2Cl)cc1
1.0%,CCc1nnc(NC(=O)CN2CCN(C(=O)c3ccccc3)CC2)s1
-1.2%,c1cncc(-c2ccc3ncnc(N4CCNCC4)c3c2)c1
79.4µM*,COC(=O)c1c(-c2cccnc2)csc1NC(=O)c1cc(C)on1
-4.9%,Cc1cc(NC(=O)CSc2ccc(-c3nc4cc(C)c(C)cc4[nH]3)cn2)no1
8.0%,CCc1ccccc1NC(=O)C1CC(c2ccc(OC)cc2)=NO1 (stereo not given)
-10.2%&-4.1%,CCC/C=C1/CCCOC(C(=O)NCc2cc(C)n(C)n2)(C(F)(F)F)C1 (stereo not given)
22.7%,CCc1c(C)[nH]c(C(=O)OCc2ccccc2)c1C
-11.4%,CCC(C(=O)Nc1cc(C(=O)Nc2cc(C)ccn2)ccc1Cl)c1ccccc1 (stereo not given)
-19.2%,CCOC(=O)c1oc2ccc(S(=O)(=O)n3nc(-c4ccc(Br)cc4)cc3N)cc2c1C
5.5%,COc1ccc(NS(=O)(=O)c2cc(C(=O)N3CCN(C(C)=O)CC3)ccc2Cl)cc1
-3.1%,COc1ccc(-c2nc(NC(=O)c3ccccc3)sc2-c2ccc([N+](=O)[O-])cc2)cc1
-2.7%,CC1(C)CC(=O)C(C=Nc2ccc(NC3=C(C#N)C(=O)CC(C)(C)C3)cc2)=C(O)C1

# Two neighbouring compounds out of the list so far, quoted:
VDR inhibitor,SMILES
-3.1%,COc1ccc(-c2nc(NC(=O)c3ccccc3)sc2-c2ccc([N+](=O)[O-])cc2)cc1
-2.7%,CC1(C)CC(=O)C(C=Nc2ccc(NC3=C(C#N)C(=O)CC(C)(C)C3)cc2)=C(O)C1

# Remaining list, next part
VDR inhibitor,SMILES
u,[O-]/C(=C(\C(=S)Nc1ccc(Cl)cc1)[n+]1ccccc1)c1ccc(OC(F)F)cc1
1.4%,COc1ccccc1CN=c1c([N+](=O)[O-])nn(-c2ccc3c(c2)OCCO3)n1O
-4.4%,Nc1ccc2sc(N)nc2c1
-1.2%,Cc1ccc(/C=C/C(=O)NC2=NCCS2)cc1
-1.3%,COC(=O)CSc1nnc(-c2cccs2)n1-c1ccc(Cl)cc1
0.8%,O=C(O)c1cccc(S(=O)(=O)N2CCN(C(c3ccccc3)c3ccccc3)CC2)c1
12.3%,Cc1ccc(NC(=O)COC(=O)c2ccc(-n3cccn3)cc2)cc1C
-2.1%,COC1C(OC(=O)/C=C/C=C/C=C/C=C/C(=O)O)CCC2(CO2)C1C1(C)OC1CC=C(C)C (stereo not given) (tested in a mixture with another compound)
9.1%,CCNc1ncnc2[nH]ncc12
-1.2%,CCOC(=O)C1(CC)NC(c2ccco2)C2C(=O)N(c3ccc(C)cc3)C(=O)C21 (stereo not given)
-14.6%,CCc1ccc(CNC(=O)Cn2nc(-c3ccccc3)ccc2=O)cc1
-9.7%,CC(C)CCN1C(=O)C2(OCCCO2)c2cc(Cl)ccc21
-16.6%,Cc1nc2ncnn2c(N2CCN(C(c3ccccc3)c3ccccc3)CC2)c1C
9.9%,O=C(N/N=C/c1cc([N+](=O)[O-])ccc1Cl)c1cc(-c2ccccc2)nc2ccccc12
-22.4%,CCOC(=O)C1=C(C)NC2=C(C(=O)CC(c3ccc(OC)c(OC)c3)C2)C1c1ccc(C)o1 (stereo not given)
-1.8%,O=C(NC(Cc1ccccc1)C(=O)O)C1CCCCC1 (stereo not given)
-7.5%,CC(=O)Nc1ccc(S(=O)(=O)N2CCN(C(=O)c3ncoc3-c3ccccc3C)CC2)cc1
1.7%,CSCCC1C(=O)OC2(C)CC(C)(C)NC(=S)N12 (stereo not given)
20.3%,CCOC(=O)c1c(C)[nH]c(C)c1S(=O)(=O)NCC(=O)Nc1ccc(C)c(N(C)C)c1
u,O=C(O)CCCn1cc(NC(=O)c2cc(F)c(F)cc2Cl)cn1
2.0%,COc1ccc(C(=O)OC(C)CN2CCN(C)CC2)cc1OC (stereo not given)
-4.4%,Cc1ccc(Cl)cc1NC(=O)CCc1c(C)nc2c3cccnc3nn2c1C
8.2%,CCOc1ccc(Oc2ccc(S(=O)(=O)N3CCOCC3)cc2NC(=O)CCNC(C)=O)cc1
-21.7%,O=C1Cc2ccccc2C(=O)N1Nc1ccccc1
-4.8%,COc1ccc(NC(=O)c2c(SC)nsc2SC)cc1
-16.9%,Nc1nc2c(c(=O)[nH]1)CN(Cc1ccccc1)CC2
-6.1%,Cc1c(/C=N/Nc2ccc([N+](=O)[O-])cn2)c2ccccc2n1Cc1ccccc1
-18.9%,Cc1cc(C)n2c(SCC(=O)Nc3ccccc3C#N)nnc2n1
12.8%,CCOc1cc(C)c(Cl)cc1S(=O)(=O)n1ccnc1
-11.7%,c1ccc(-c2nnc(CSc3ccc4c(c3)OCCO4)o2)cc1
2.3%,Cc1cc(C)c(NS(=O)(=O)c2ccc(-c3cnc(C4CC4)o3)cc2)c(C)c1
4.5%,COc1cc([N+](=O)[O-])ccc1NC(=O)NNC(=O)C(C)Oc1ccc(F)cc1F (stereo not given)

# Screening data as filed in PubChem.

# Not all compounds are listed; the hit share may differ from the screen's.
